# NPYLR7 ag: activates Aedes aegypti NPYLR7 receptor; HEK293T NPYLR7/Galpha15, GCaMP6s calcium fluorescence; activation, % at 10 µM; 270,000 tested, 0.15% active; AID 1259423; in the data active = activation above about 40%;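 note: 0% = vehicle and 100% = reference agonist at the receptor; some compounds past the cut are filed as inactive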
# NPYLR7 ag max-min: also measured in NPYLR7 ag; calls as there; activation, %; measured here: Max-Min RFU normalised activation; some inactives read as strong as hits;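 span of the calcium signal over five minutes; 0% = vehicle and 100% = native peptide agonist; compound fluorescence can raise it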
# Active calls of the source: *; & = joins results of further samples. The list is partial, so the mix of outcomes need not match the whole.
SMILES	NPYLR7 ag	NPYLR7 ag max-min
CCn1cc(NC(=O)C(=O)NCC2CCCCC2C)ccc1=O (stereo unspecified)	2	1
CCC1(C)C(=O)NCCN1C(=O)Cc1c(C)nc(C)[nH]c1=O (stereo unspecified)	0&16	10&11
N=c1oc2ccc(Br)cc2cc1C(=O)Nc1ccccc1F	-4	-8
Cc1ccc(-n2nc(C(C)(C)C)cc2NC(=O)CN(Cc2ccccc2)C(=O)Nc2ccc(Cl)c(Cl)c2)c(C)c1	-3	0
O=C(NCc1cccnc1-n1ccnc1)c1cnc(CN2CCCC2)s1	17	14
COc1ccccc1C(=O)Nc1sc2c(c1C(=O)NCC1CCCO1)CCCC2 (stereo unspecified)	11	9
COc1ccc(C2CC(c3ccc(OC)c(OC)c3)=NN2S(C)(=O)=O)cc1 (stereo unspecified)	2	-1
Cc1cccnc1NC(=O)c1cc2c(s1)CCC(C)C2 (stereo unspecified)	-4	-6
COc1ccc(C)cc1NC(=O)N1CC(=O)N2CC(C)c3ccccc3C2C1 (stereo unspecified)	13	4
O=C(CCc1ccccc1)N1CCN(c2nccc(-c3ccc(Oc4ccccc4)cc3)n2)CC1	4	0
COCCCn1c(C)c(C)c(C#N)c1NC(=O)CN1CC(C)CC(C)C1 (stereo unspecified)	3	0
CNC(=O)CN(C)c1ccc(S(=O)(=O)N(C(C)C)C(C)C)cn1	0	-1
O=C(C1CCCCC1)N1CCC(Nc2nc(C3CC3)ns2)CC1	-26&2	-24&-5
COc1ccc(CCOc2nc(-c3ccccc3F)n(-c3cccc(NC(=O)c4ccc5c(c4)OCO5)c3)n2)cc1	-12	-3
CCCc1nc(C)sc1C(=O)NN(C)c1ccccc1	7	0
CN(C(=O)c1ccc(=O)n(CCOc2ccccc2)n1)C1CCCc2ccccc21 (stereo unspecified)	-3	-5
CCC(NC(=O)NCc1ccc2c(c1)OCO2)C12CC3CC(CC(C3)C1)C2 (stereo unspecified)	-3	-4
Cc1cccc(-c2cn(Cc3ccccc3C(F)(F)F)nn2)n1	-5	-5
Cc1nc(C(C)NC(=O)Cn2c(C3CC3)nc3ccccc32)n[nH]1 (stereo unspecified)	5	4
Cc1nc2n(n1)C(=O)C(C(c1ccccc1F)N1CCN(CCO)CC1)S2 (stereo unspecified)	0	-1
CSc1ccc(CN2C(=O)C(C)ON=C2c2ccccc2F)cc1 (stereo unspecified)	9	5
O=C(c1cc(F)cc(F)c1)N1CCc2cc([N+](=O)[O-])ccc21	1	6
COCCN(Cc1cnn(C)c1)C(=O)C(=O)c1cccs1	9	1
O=C(NCc1cc(-c2cccnc2)no1)c1cnn(Cc2ccccc2)c1	2	0

# An excerpt from the list above, as a working copy:
SMILES	NPYLR7 ag	NPYLR7 ag max-min
Cc1nc2n(n1)C(=O)C(C(c1ccccc1F)N1CCN(CCO)CC1)S2 (stereo unspecified)	0	-1
CSc1ccc(CN2C(=O)C(C)ON=C2c2ccccc2F)cc1 (stereo unspecified)	9	5

# (listing goes on)
SMILES	NPYLR7 ag	NPYLR7 ag max-min
CCCOc1ccccc1NC(=NS(=O)(=O)c1ccc(C)cc1)Nc1nc(C)cc(C)n1	-4	-8
CCOc1cccc(C=NNC(=O)c2n[nH]c3c2CCC3)c1O	7	11
CN(Cc1cc(-c2ccncc2)no1)Cc1ccccc1-c1ccco1	2	1
O=C(Nc1nc2cc3c(cc2s1)OCCO3)C1CCCCC1	8	8
CCOC(=O)N1CCN(C(=O)CSc2ccc(-c3cccnc3)nn2)CC1	-2	-11
CCOc1cc2c3c(c1)C1(Nc4ccccc4CO1)C(=O)N3C(C)(C)CC2C (stereo unspecified)	-9	-14
COc1ccc(OCCCN2C(=O)C3(CC(=O)N(CC(=O)N(C)C)C3=O)c3cc(F)ccc32)cc1 (stereo unspecified)	-2	-6
CCOC(=O)CSc1c(CC(C)C)cnc2c1c(=O)n(C)c(=O)n2C	2	2
O=C(O)c1csc(-c2cccs2)n1	-1	3
O=C(O)c1cc(OC2CCCCC2)c(F)cc1NS(=O)(=O)c1ccc2c(c1)COC2	-1	-3
O=C(CCC(=O)N1CCCN(c2ncccn2)CC1)NC1CCCC1	1	1
COC(=O)c1ccc(Cn2ccnc2-c2nccn2C(C)C)cc1	8	3
COc1ccc(Br)cc1C1Nc2ccccc2-c2nnc(SC)nc2O1 (stereo unspecified)	-5	-9
NCCCCCCNC(=O)c1c(O)c2ccccc2oc1=O	-4	-7
O=[N+]([O-])c1ccccc1S(=O)(=O)NCc1ccc(F)cc1	-8	-7
CCN(Cn1nc(-c2ccc(C(C)(C)C)cc2)n(C)c1=S)C1CCS(=O)(=O)C1 (stereo unspecified)	-7	-9
CC(C(=O)OCc1csc(CC(=O)NCc2ccccc2)n1)N1C(=O)c2ccccc2C1=O (stereo unspecified)	-1	12
COc1ccc2nc(NC(=O)C(C)n3c(=O)oc4ccccc43)sc2c1 (stereo unspecified)	4	2
Cc1cccc(-c2nc(C)cc(N3CCN(S(=O)(=O)c4c(C)cc(C)cc4C)CC3)n2)c1	1	2
CN(Cc1ccc(Br)s1)c1cc(C(N)=O)ccn1	2&3	-1&2
Cc1ccc(NC(=O)c2cccn(OCc3ccccc3F)c2=O)c(C)c1	3	3
Cc1cc(C)n(-c2ccc(NC(=O)C3CCCCN3C(=O)c3cc(C)on3)cc2)n1 (stereo unspecified)	15	8
C=CCn1c(SCC(C)=O)nc2sc(C)c(C)c2c1=O	3	0
CCCN1C(=O)C(CCC(=O)NNc2ccccc2C(F)(F)F)NC(=O)c2ccccc21 (stereo unspecified)	0	11
CN(C)c1cc(-c2noc(C3CC(c4cccc(F)c4)=NO3)n2)ccn1 (stereo unspecified)	6	4
C=CCn1c(C)cc(C(=O)CN2C(=O)C(=O)N(CCc3cccs3)C2=O)c1C	5	15
Clc1ccc(-n2ncnc2-c2ccc3c(c2)OCO3)cc1	10	10
CCOC(=O)c1ccc(CN2CCCC2(C)C(=O)NCC(C)C)cc1 (stereo unspecified)	3	0
CCOC(=O)N1CCN(C(c2ccc(C)cc2)C2Sc3nc(CC)nn3C2=O)CC1 (stereo unspecified)	-7	-10
COc1ccc(OC)c(-c2cc(C(=O)N=Nc3c(O)[nH]c4ccccc34)[nH]n2)c1	3	8
CC[C@@H]1[C@H](OCc2ccccc2)c2ccccc2S(=O)(=O)N1CCO	14	21
Cc1cc(-c2ccccc2)nc2cc(C(=O)NC(C)(C)C)nn12	-9	-13
Cc1ccc(-n2c(C)nn(CN3CCN(c4ccccc4O)CC3)c2=S)cc1	-1	-3
CN1Cc2ccccc2CC1Cn1ccnc1-c1ccc(CO)o1 (stereo unspecified)	2	-2
Cc1cc2c(=O)n(Cc3ccco3)c(SCC(=O)NCCc3ccccc3)nc2s1	-5	-5
CN(C)Cc1nc2ccccc2c(=O)n1Cc1nc(C(C)(C)C)cs1	-1	-1

# Reprinted from the part before: 5 compounds, followed by the next part.
SMILES	NPYLR7 ag	NPYLR7 ag max-min
Cc1cc(-c2ccccc2)nc2cc(C(=O)NC(C)(C)C)nn12	-9	-13
Cc1ccc(-n2c(C)nn(CN3CCN(c4ccccc4O)CC3)c2=S)cc1	-1	-3
CN1Cc2ccccc2CC1Cn1ccnc1-c1ccc(CO)o1 (stereo unspecified)	2	-2
Cc1cc2c(=O)n(Cc3ccco3)c(SCC(=O)NCCc3ccccc3)nc2s1	-5	-5
CN(C)Cc1nc2ccccc2c(=O)n1Cc1nc(C(C)(C)C)cs1	-1	-1
COc1cccc(-c2nc3ccc(C(=O)NCCN4CCCC4=O)cc3o2)c1	3	-2
CN1C(=O)NC(c2ccc(C(F)(F)F)cc2)C2=C1CN(CCN1CCOCC1)C2=O (stereo unspecified)	2	6
CCC(Sc1nc2c(c(=O)n1-c1ccccc1)SCC2)C(=O)OC (stereo unspecified)	-4	-4
C=CCN(Cc1nccn1Cc1ccc(OC)cc1)C(=O)CC(C)C	18	13
COc1ccc(NC(=O)c2cc3cc(OC)ccc3oc2=O)c(OC)c1	-5	-10
Cc1cccc(-n2c(=O)c3ccccc3n(C(C)C(=O)Nc3ccc(F)cc3)c2=O)c1C (stereo unspecified)	19	23
NC(=O)c1nnc2n1CCN(C(=O)/C=C/c1ccccc1)C2	7	2
COc1ccc(OC)c(/C=C2/N=C(c3cc(Cl)ccc3OC)OC2=O)c1	-1	0
CS(=O)(=O)Oc1ccc(CN(Cc2ccccc2)C(=O)c2ccc(C(F)(F)F)cc2)cc1	2	1
COc1cccc(CN(Cc2nc(C(=O)NCc3ccncc3)co2)CC2CC2)c1	-11	19
CCOc1ccc(S(=O)(=O)NC(=O)c2cc(C(C)(C)C)[nH]n2)cc1	-1	-2
CCCCN1C(=O)Cc2c1nc(N)c1c(N)nc(N(CCC)CCC)c(C#N)c21	3	1

# In the list so far, two have a nitro group on carbon:
SMILES	NPYLR7 ag	NPYLR7 ag max-min
O=C(c1cc(F)cc(F)c1)N1CCc2cc([N+](=O)[O-])ccc21	1	6
O=[N+]([O-])c1ccccc1S(=O)(=O)NCc1ccc(F)cc1	-8	-7

# Next part
SMILES	NPYLR7 ag	NPYLR7 ag max-min
O=C(c1cc2ccccc2[nH]1)N1CCCC(c2nc(-c3cccnc3)ncc2-c2ccccc2F)C1 (stereo unspecified)	19	9
O=C(NCCCn1ccnc1)c1noc2c1CCCC2	0	1
N#Cc1cccnc1N1CCC(C(=O)NCC2CCCO2)CC1 (stereo unspecified)	-3	-3
Cn1cc(CNCC2CCN(c3ncc(C(=O)NO)cn3)CC2)c2ccccc21	-3	-8
O=C(NC1CCN(c2c(F)cccc2F)C1=O)C1=CCCCO1 (stereo unspecified)	3	2
CCOC(=O)c1cnc2[nH]c3ccccc3n2c1=O	28	24
CCCCc1cnc2c(c1SCC(=O)Nc1ccc(C)c(Cl)c1)c(=O)n(C)c(=O)n2C	7	10
Cn1c(SCc2cn3cc(Cl)ccc3n2)nc2ccccc21	-10	-13
COC(=O)c1ccc(N2C(=O)CC(N3CCC(C(N)=O)CC3)C2=O)cc1 (stereo unspecified)	3	0
CC1C(=O)N(c2cccc(F)c2)CCN1C(=O)Nc1cccc(Cl)c1 (stereo unspecified)	1	4
CCc1nc2ccc(C(=O)N(C)C(C)C)cn2c1N(CC)CCOC	-5	-5
CCN(Cc1nccn1C)C(=O)c1ccc(-c2ccc3c(c2)OCCO3)nc1	18	5
CC(C)c1ccccc1OCC(=O)Nc1nccs1	15	10
COc1ccc(-n2c(CCC(=O)NCc3ccccn3)ccc2-c2ccc(Cl)cc2)cc1	2	-2
COCc1ncc(CN2CCN(c3nc(C)cnc3C)CC2)cn1	5	-3
O=C(CCn1cncn1)Nc1ccccc1C(=O)n1cnc2ccccc21	4	3
CC(CNC(=O)N(C)C1CCOCC1)c1c(Cl)cccc1Cl (stereo unspecified)	8	9
Cc1nn(C)c(C)c1CN(C(=O)c1ccc(-n2cc(NC(=O)c3cccnc3)cn2)cc1)C1CC1	13	-1
N#Cc1cccc(C(=O)N2CCC(n3c(=O)oc4ccc(Cl)cc43)CC2)c1	20	16
O=C(C=Cc1ccsc1)N1CCN(S(=O)(=O)c2cc(F)ccc2F)CC1	24	16
Cc1nonc1CN(C)C(=O)C1CCN(c2nc(-c3ccccc3)nc3c2CCC3)CC1	-6	-8
COc1ccc(-c2nc3ccccn3c2NC2CCCCC2)cc1OC	-8	1
CC(C)C1CN(C(=O)CCCc2cn[nH]c2)CCC(=O)N1CC1CC1 (stereo unspecified)	4	4
CC(C)(C)C(=O)Nc1ccc(Oc2cccc(C#N)c2)nc1	-5	-2
N#Cc1cnn(C(=O)Cn2cccc(C(F)(F)F)c2=O)c1N	-7	-6
COc1cccc(CN2CCCC(O)(CN3CCC(n4cnnc4)CC3)C2=O)c1 (stereo unspecified)	6	5
CC1CCN(CC2(O)CCCN(Cc3ccc(F)cc3)C2=O)CC1 (stereo unspecified)	1	-3
Cc1noc(C)c1S(=O)(=O)N1CCN(C(=O)CN2CCOCC2)CC1	7	3
CCN(CCn1cccn1)C(=O)CCc1nnc(CCc2ccccc2OC)o1	10	9
O=c1c2cc([N+](=O)[O-])ccc2nc2n1CCC2	2	8
Cc1ccccc1N1CCN(C2CCCN(C(=O)c3ccco3)C2)CC1 (stereo unspecified)	13	25
Cc1c(C(=O)NCc2cccc([N+](=O)[O-])c2)sc(=O)n1CCc1ccccc1	4	0
Nc1nc(SCc2ccccc2CSc2n[nH]c(N)n2)n[nH]1	3	7
N#Cc1c(Cl)nsc1NCCN1CCCCCC1=O	1	1
CCn1nnnc1SCC(=O)Nc1cc(F)ccc1C	0	-1
CC(O)(C(=O)N1CCC(N2CCC(C(=O)NC3CC3)CC2)CC1)c1ccccc1 (stereo unspecified)	12	5
CCc1ccc(CN(C)C(=O)c2cccc(-n3cc(NC(=O)Cc4cccc(C)c4)cn3)c2)nc1	5	0
COC(=O)c1cccc(CN2C(=O)C(C)Oc3ccc([N+](=O)[O-])cc32)c1 (stereo unspecified)	1	4
O=C(C[n+]1cc(Br)cc2ccccc21)c1ccccc1	2	-4
CC(=O)Nc1sc(C)c(C)c1C(=O)OCC(=O)N1CC2(C)CC1CC(C)(C)C2 (stereo unspecified)	2	9
CC1CCN(Cc2csc(NC(=O)C3CC(=O)N(c4ccc5c(c4)OCCO5)C3)n2)CC1 (stereo unspecified)	9	2
CCN(CC1CCCN(CCc2cccc(OC)c2)C1)C(=O)c1snnc1C (stereo unspecified)	2	-1
CCCc1nc(N2CCCN(C(=O)CSc3ccccc3)CC2)c2cnn(-c3ccccc3)c2n1	-5	-5
O=C(Nc1ccc(F)cc1F)N1CC(c2ccncc2)C1	22	14
